Anthrax LT inh: inhibitors of anthrax lethal toxin internalization; AID 912; Cells, anthrax lethal toxin internalization, FRET ratio (460/530); 0.67% of 70,000 active; Potency, µM (highest dose often 40 µM), inactives show at the highest dose activity change, negative = inhibition, usual class: inhibitors; active = well fitted falling ratio curve with the 530 nm signal flat; inconclusive = other ratio curves, or a change in one channel alone; inactive = flat curves in the ratio and both channels; the % refers to the ratio; further: on the % scale 0 is the no-effect control and ±100 the full control effect; nearly all actives have a fitted effect of over 50% in size; tested in ME-180 cells; beta-lactamase reporter
SmPrx2 inh: Schistosoma mansoni Prx2 inhibition; S. mansoni Prx2 activity coupled to TGR/GSH (TGR is thioredoxin glutathione reductase), NADPH fluorescence loss, qHTS; some inactives read as strong as hits; Potency, µM; 0.07% of 65,000 active; AID 448; active means full or partial inhibition curve with a strong effect at the top dose; inconclusive means weaker partial or single-point curve; inactive means no accepted curve; further: series up to 57 µM; many of its hits are not listed in these tables
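Prx2 inhibition was measured as reduced NADPH consumption when electrons flowed from NADPH through TGR and glutathione to Prx2 and H2O2. Plates were read kinetically over 8 min; enzyme reagents were held at 4 deg C during dispensing.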
Starred values were filed as active, the others as inactive; & = joins results of further samples; [ ] = another dose, or the depositor's remark. Potency means the concentration at half of the fitted maximal effect.

What do the screens show for `O=C(c1c(O)c2ccccc2oc1=O)C1CCC1`?
Anthrax LT inh: 0%; SmPrx2 inh: >57

Results for O=C(CSc1nnnn1-c1ccccc1)CC(=O)Nc1ccc(Cl)cc1 ?
Anthrax LT inh: inconclusive; SmPrx2 inh: >57

Results for Cc1nc2nc(CSc3nc4ccccc4s3)cc(=O)n2[nH]1 ?
Anthrax LT inh: -5%; SmPrx2 inh: >57

What do the screens show for `Cc1cnc(CNc2nc(-c3cccnc3)nc3ccccc23)cn1`?
Anthrax LT inh: 9%; SmPrx2 inh: >57

How did Cc1ccc(CCN2CC(C(=O)NCCCN3CCN(C)CC3)CC2=O)cc1 (configuration not stated) do in these assays?
Anthrax LT inh: 8%; SmPrx2 inh: >57

What do the screens show for `CCOC(=O)c1cccc(NC(=O)CCS(=O)(=O)c2cccs2)c1`?
Anthrax LT inh: -17%; SmPrx2 inh: >57

How did NC1C2CN(c3nc4c(cc3F)c(=O)c(C(=O)O)cn4-c3ccc(F)cc3F)CC12 (configuration not stated) do in these assays?
Anthrax LT inh: -10%; SmPrx2 inh: >57

What do the screens show for `O=C1CCC(C(=O)OCC(=O)C23CC4CC(CC(C4)C2)C3)N1` (configuration not stated)?
Anthrax LT inh: 3%; SmPrx2 inh: >57

What do the screens show for `COc1cc([C@H]2c3cc4c(cc3[C@@H](O)[C@@H]3COC(=O)[C@H]23)OCO4)cc(OC)c1OC`?
Anthrax LT inh: inconclusive; SmPrx2 inh: >57&>26

Results for COc1ccc(CCNC(=O)CCn2c(=O)[nH]c3cc(OC)c(OC)cc3c2=O)cc1OC ?
Anthrax LT inh: 0%; SmPrx2 inh: >57

What do the screens show for `CC(C)CCOc1cccc(C2c3c(oc4ccccc4c3=O)C(=O)N2CCCN2CCOCC2)c1` (configuration not stated)?
Anthrax LT inh: -20%; SmPrx2 inh: >57

Results for Cc1nnc2sc(-c3ccccn3)nn12 ?
Anthrax LT inh: -8%; SmPrx2 inh: >57

Results for CCOc1ccc(CN2CCC(C(=O)N3CCN(c4ccccc4F)CC3)CC2)cc1OC ?
Anthrax LT inh: 4%; SmPrx2 inh: >57

What do the screens show for `CC(=O)O[C@H]1C2=CO[C@H](C)[C@H]3[C@H]4C5=C([C@H](O)[C@H]6O[C@@H]6C5=O)[C@H](O[C@H]4C)[C@@]23C(=O)[C@H]2O[C@@H]21`?
Anthrax LT inh: -2%[8 µM]

What do the screens show for `CC(=O)N1[C@H](C)C=C[C@]1(Cc1ccccc1)C(=O)NCCc1c[nH]c2ccccc12`?
Anthrax LT inh: 1%

Already shown: entries from further up.
What do the screens show for `O=C(c1c(O)c2ccccc2oc1=O)C1CCC1`?
Anthrax LT inh: 0%; SmPrx2 inh: >57

Results for O=C(CSc1nnnn1-c1ccccc1)CC(=O)Nc1ccc(Cl)cc1 ?
Anthrax LT inh: inconclusive; SmPrx2 inh: >57

Results for Cc1nc2nc(CSc3nc4ccccc4s3)cc(=O)n2[nH]1 ?
Anthrax LT inh: -5%; SmPrx2 inh: >57

What do the screens show for `Cc1cnc(CNc2nc(-c3cccnc3)nc3ccccc23)cn1`?
Anthrax LT inh: 9%; SmPrx2 inh: >57

How did Cc1ccc(CCN2CC(C(=O)NCCCN3CCN(C)CC3)CC2=O)cc1 (configuration not stated) do in these assays?
Anthrax LT inh: 8%; SmPrx2 inh: >57

What do the screens show for `CCOC(=O)c1cccc(NC(=O)CCS(=O)(=O)c2cccs2)c1`?
Anthrax LT inh: -17%; SmPrx2 inh: >57

How did NC1C2CN(c3nc4c(cc3F)c(=O)c(C(=O)O)cn4-c3ccc(F)cc3F)CC12 (configuration not stated) do in these assays?
Anthrax LT inh: -10%; SmPrx2 inh: >57

What do the screens show for `O=C1CCC(C(=O)OCC(=O)C23CC4CC(CC(C4)C2)C3)N1` (configuration not stated)?
Anthrax LT inh: 3%; SmPrx2 inh: >57

What do the screens show for `COc1cc([C@H]2c3cc4c(cc3[C@@H](O)[C@@H]3COC(=O)[C@H]23)OCO4)cc(OC)c1OC`?
Anthrax LT inh: inconclusive; SmPrx2 inh: >57&>26

Results for COc1ccc(CCNC(=O)CCn2c(=O)[nH]c3cc(OC)c(OC)cc3c2=O)cc1OC ?
Anthrax LT inh: 0%; SmPrx2 inh: >57

What do the screens show for `CC(C)CCOc1cccc(C2c3c(oc4ccccc4c3=O)C(=O)N2CCCN2CCOCC2)c1` (configuration not stated)?
Anthrax LT inh: -20%; SmPrx2 inh: >57

Results for Cc1nnc2sc(-c3ccccn3)nn12 ?
Anthrax LT inh: -8%; SmPrx2 inh: >57

Results for CCOc1ccc(CN2CCC(C(=O)N3CCN(c4ccccc4F)CC3)CC2)cc1OC ?
Anthrax LT inh: 4%; SmPrx2 inh: >57

What do the screens show for `CC(=O)O[C@H]1C2=CO[C@H](C)[C@H]3[C@H]4C5=C([C@H](O)[C@H]6O[C@@H]6C5=O)[C@H](O[C@H]4C)[C@@]23C(=O)[C@H]2O[C@@H]21`?
Anthrax LT inh: -2%[8 µM]

What do the screens show for `CC(=O)N1[C@H](C)C=C[C@]1(Cc1ccccc1)C(=O)NCCc1c[nH]c2ccccc12`?
Anthrax LT inh: 1%

The list continues.
What do the screens show for `O=C(Cn1ncc2c3ccccc3n(Cc3ccc(F)cc3)c2c1=O)N1CCC2(CC1)OCCO2`?
Anthrax LT inh: -12%; SmPrx2 inh: >57

How did O=C(O)CCn1ccnc1-c1ccccc1 do in these assays?
Anthrax LT inh: -2%; SmPrx2 inh: >57

How did CC(NC(=O)COC(=O)CCNC(=O)c1ccco1)C12CC3CC(CC(C3)C1)C2 (configuration not stated) do in these assays?
Anthrax LT inh: -9%; SmPrx2 inh: >57

What do the screens show for `CCOC(=O)Cc1csc(NC(=O)C(C)(C)C)n1`?
Anthrax LT inh: 1%; SmPrx2 inh: >57

How did Cc1cc(C)nc(SCc2nnc(SCC(=O)NCc3ccco3)n2-c2ccccc2)n1 do in these assays?
Anthrax LT inh: -7%; SmPrx2 inh: >57

How did Cc1nc(N2CCC(C)CC2)c2c(C)c(C(=O)O)sc2n1 do in these assays?
Anthrax LT inh: 2%; SmPrx2 inh: >57

How did COc1ccc(NC(=O)N2CC3(CCN(C(=O)c4csnn4)CC3)C2)cc1 do in these assays?
Anthrax LT inh: -3%; SmPrx2 inh: >57

What do the screens show for `CCn1c(-c2ccc(C(C)(C)C)cc2)n[nH]c1=S`?
Anthrax LT inh: -18%; SmPrx2 inh: >57

What do the screens show for `NC(=O)c1ccc(-n2nnnc2SCc2ccc(F)cc2)cc1`?
SmPrx2 inh: >57

How did CCn1c(=O)cc(OCC(=O)N2CCCCCC2)c2ccccc21 do in these assays?
Anthrax LT inh: 11%; SmPrx2 inh: >57

What do the screens show for `COc1cccc2cc(C(=O)OC3CCN(C)CC3)c(=O)oc12`?
Anthrax LT inh: -11%; SmPrx2 inh: >57

How did CC(=O)c1c(O)n(C)c(=S)n(-c2ccccc2)c1=O do in these assays?
Anthrax LT inh: 1%; SmPrx2 inh: >57

How did CSc1ccccc1NC(=O)c1ccoc1C do in these assays?
Anthrax LT inh: 2%; SmPrx2 inh: >57

How did Cc1ccc(CCNC(=O)C2CCCN(S(=O)(=O)c3c(C)noc3C)C2)cc1 (configuration not stated) do in these assays?
Anthrax LT inh: -11%; SmPrx2 inh: >57

What do the screens show for `CCCc1cc(=O)n2[nH]c(C)cc2n1`?
Anthrax LT inh: 4%; SmPrx2 inh: >57

Results for O=C(CNC(=O)c1ccco1)OCN1C(=O)c2ccccc2C1=O ?
Anthrax LT inh: 8%; SmPrx2 inh: >57

How did COC(=O)CNc1nc(C2CC2)nc2c1nnn2Cc1ccccc1Cl do in these assays?
Anthrax LT inh: 0%; SmPrx2 inh: >57

Results for O=C(Cn1c(=S)nc2ccccn21)N1CCc2ccccc2C1 ?
Anthrax LT inh: 5%; SmPrx2 inh: >57

Results for COc1cccc(NC(=O)Cc2c(O)c3ccccc3[nH]c2=O)c1 ?
Anthrax LT inh: -14%; SmPrx2 inh: >57

What do the screens show for `Clc1ccccc1OCc1nc(-c2ccncc2)no1`?
Anthrax LT inh: 6%; SmPrx2 inh: >57

Results for CC1CCN(C(=O)CCc2nc3cc(S(=O)(=O)N(C)C)ccc3n2C)CC1 ?
Anthrax LT inh: 2%; SmPrx2 inh: >57

How did COc1cc(C(=O)OCCN2CCOCC2)ccc1O do in these assays?
Anthrax LT inh: 5%; SmPrx2 inh: >57

What do the screens show for `C=CCOCC/C=C1/c2ccccc2C(OC)C1C` (configuration not stated)?
Anthrax LT inh: 0%[8 µM]

How did COc1ccc(-c2noc(CN(C(=O)c3c(-c4ccccc4Cl)noc3C)C(C)C)n2)cc1 do in these assays?
Anthrax LT inh: -21%; SmPrx2 inh: >57

How did COc1ccc(C2CC(=O)c3cnc(NC(=O)c4cc(OC)cc(OC)c4)nc3C2)cc1 (configuration not stated) do in these assays?
SmPrx2 inh: >57

Results for O=C(CSc1cn(CCNC(=O)c2cccs2)c2ccccc12)NCC1CCCO1 (configuration not stated) ?
Anthrax LT inh: 17%; SmPrx2 inh: >57

How did CN1CCN(C(=O)c2cnn3c(C(F)(F)F)cc(-c4ccc5c(c4)OCO5)nc23)CC1 do in these assays?
Anthrax LT inh: 2%; SmPrx2 inh: >57

How did CCOC(=O)c1ccc(S(=O)(=O)Nc2cc(C(C)(C)C)no2)cc1 do in these assays?
Anthrax LT inh: -22%; SmPrx2 inh: >57

How did O=C(CN1C(=O)COCC1=O)N1CCOCC1 do in these assays?
Anthrax LT inh: 6%

How did CCOC(=O)N1CCC(NC(=O)C2CCCN(S(=O)(=O)c3cccnc3)C2)CC1 (configuration not stated) do in these assays?
Anthrax LT inh: -5%; SmPrx2 inh: >57

How did Nc1nc(Nc2ccccc2)nc2c1ncn2[C@@H]1O[C@@H](CO)[C@H](O)[C@H]1O do in these assays?
Anthrax LT inh: 13%; SmPrx2 inh: >57

What do the screens show for `COCCNC(=O)CN(C)S(=O)(=O)c1ccc(Br)cc1`?
Anthrax LT inh: -4%; SmPrx2 inh: >57

Results for CCNc1ncc2nc(-c3cc(F)cc(F)c3)c(=O)n(-c3ccc(OC)cc3)c2n1 ?
Anthrax LT inh: inconclusive; SmPrx2 inh: >57

How did O=C(COc1ccc(S(=O)(=O)NC2CCCCC2)cc1Cl)NCc1cccnc1 do in these assays?
Anthrax LT inh: -3%; SmPrx2 inh: >57

How did Cc1ccnc(SCC(=O)N2CCC(C(N)=O)CC2)n1 do in these assays?
SmPrx2 inh: >57

Results for Fc1ccccc1N1CCN(C(c2ccncc2)c2nnnn2C2CCCC2)CC1 (configuration not stated) ?
Anthrax LT inh: 7%; SmPrx2 inh: >57

How did Cc1ccc(S(=O)(=O)N2CCN(Cc3cc(C(C)C)ccc3O)CC2)cc1 do in these assays?
Anthrax LT inh: inconclusive; SmPrx2 inh: >57

Results for C#CCCCO/N=C1/[C@H]2O[C@@H]2[C@@H](O)[C@H]2[C@H]1CCn1c(=O)n([C@@H](CC)c3ccccc3)c(=O)n12 ?
Anthrax LT inh: -18%[8 µM]

Results for Cc1ccccc1-n1ncc2c(SCC(=O)NCc3cccs3)ncnc21 ?
Anthrax LT inh: -14%; SmPrx2 inh: >57

What do the screens show for `C1=C(C(c2nnnn2C2CCCCC2)N2CCCCC2)COc2ccccc21` (configuration not stated)?
Anthrax LT inh: 3%; SmPrx2 inh: >57

Results for CC(C)(C)c1cc(/C=C(\C#N)C(N)=S)cc(C(C)(C)C)c1O ?
Anthrax LT inh: 7.9µM*; SmPrx2 inh: >57

Results for Cc1ccc(C(=O)Nc2nnc(-c3cccs3)s2)cc1C ?
Anthrax LT inh: 5%; SmPrx2 inh: >57

What do the screens show for `O=C(c1ccco1)c1cn(CC(=O)N2CCCc3ccccc32)c2ccccc12`?
Anthrax LT inh: -14%; SmPrx2 inh: >57

Results for O=C(CSc1nnc(CNC(=O)c2ccco2)o1)NC1CCCC1 ?
Anthrax LT inh: -5%; SmPrx2 inh: >57

How did COC(=O)CC(=O)CSc1nc2c(cc1C#N)CCCCC2 do in these assays?
Anthrax LT inh: 5%; SmPrx2 inh: >57

Results for Cc1ccc2[nH]c(=O)c(C(c3nnnn3CCc3ccccc3)N3CCOCC3)cc2c1 (configuration not stated) ?
Anthrax LT inh: -5%; SmPrx2 inh: >57

Results for O=S(=O)(Cc1ccccc1)N1CCc2ccccc2C1 ?
Anthrax LT inh: -12%

How did Cc1nc(N2CCN(c3ccccc3)CC2)[nH]c(=O)c1Cc1cccc2ccccc12 do in these assays?
Anthrax LT inh: -8%; SmPrx2 inh: >57

What do the screens show for `Cn1cccc1C(=O)N1CCC2(CCCN(c3ccncc3)C2)CC1`?
Anthrax LT inh: inconclusive; SmPrx2 inh: >57

How did CCN(CC)C(=O)CSc1nnc(-c2cccs2)n1Cc1ccco1 do in these assays?
Anthrax LT inh: -7%; SmPrx2 inh: >57

How did Cc1cccc(NC(=O)C2CCCN2S(=O)(=O)c2cccc3cccnc23)c1 (configuration not stated) do in these assays?
Anthrax LT inh: 7%; SmPrx2 inh: >57

A portion of the library. The share of hits here may be higher or lower than overall.
